2A StopGo: lowers the luciferase signal of an FMDV 2A StopGo reporter | human cells with a luciferase reporter of 2A StopGo recoding; control for the full effect not named in the record | Potency, µM (titrated, usually from 57.9 µM), for inactives: at the top dose signal change, negative = less light | 410,000 tested, 1.2% active | AID 1159524; active = well fitted falling curve with a large enough effect; inconclusive = small, poorly fitted or top-dose-only effect; inactive = no such curve, though single readings can be large or run the other way; tested in HEK293T cells; note: % is set by controls: 0 for no effect and ±100 for the full control effect; nearly all actives have a fitted effect of over 45% in size; luciferase light after 4 h
Cruzain inh noDet: blocks cruzain activity in detergent-free assay; P25779; purified cruzain, Z-FR-AMC fluorescence, no detergent; Potency, µM, for the others: max response, negative = inhibition, hits mostly inhibitors; 200,000 tested, 2.3% active; AID 1476;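 note: plate controls were enzyme without inhibitor for no effect and buffer without enzyme for full effect; nearly all actives have a fitted effect of over 40% in size; top concentration of the series not given in the record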
Target sequence (P25779 123-467 limits assumed): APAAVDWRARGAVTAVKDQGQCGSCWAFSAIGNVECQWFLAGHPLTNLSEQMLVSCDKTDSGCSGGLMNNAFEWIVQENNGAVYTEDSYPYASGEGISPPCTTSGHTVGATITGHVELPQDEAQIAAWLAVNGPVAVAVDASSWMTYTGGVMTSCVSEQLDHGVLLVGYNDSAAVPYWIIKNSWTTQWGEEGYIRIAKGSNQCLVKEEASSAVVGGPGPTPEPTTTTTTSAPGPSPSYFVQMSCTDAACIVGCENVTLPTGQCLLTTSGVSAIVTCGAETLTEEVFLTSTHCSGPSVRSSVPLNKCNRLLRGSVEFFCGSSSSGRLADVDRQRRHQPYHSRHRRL
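Purified cruzain at 1.5 nM, pre-incubated 15 min with compound at room temperature in 100 mM sodium acetate pH 5.5, 5 mM DTT, 0.00005% Triton X-100. Reaction started with 2 uM Z-FR-AMC; AMC fluorescence increase over 60 s gives rate.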
NS1 inh: influenza NS1 inhibition; AID 2326; Potency, µM (top dose mostly 46.1 µM), inactives show at the highest dose activity, positive = more growth; 270,000 tested, 0.4% active; S. cerevisiae slowed by influenza A NS1, growth recovery by OD600; active means well fitted rising curve with a large enough effect; inconclusive means small, poorly fitted or top-dose-only effect; inactive means no such curve, though single readings can be large or run the other way; note: nearly all actives have a fitted effect of over 50% in size
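A cell-based growth assay was used: compounds that relieve NS1-induced slow growth of budding yeast raise OD600. Assay medium was yeast nitrogen base with ammonium sulphate and -URA supplement, pH 6.0, with 2% galactose.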
RE007 growth inh: less growth of the S. pombe RE007 Vpr strain; 360,000 tested, 0.21% active; S. pombe RE007 Vpr strain, BacTiter-Glo ATP luminescence, 24 h; control for the full effect not named in the record; Potency, µM (series often up to 92.2 µM), for the others: at the highest dose activity change, negative = less growth; active = well fitted falling curve with a large enough effect; inconclusive = small, poorly fitted or top-dose-only effect; inactive = no such curve, though single readings can be large or run the other way;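 note: % is set by controls: 0 for no effect and ±100 for the full control effect; nearly all actives have a fitted effect of over 50% in size; the assay follows cell death caused by Vpr and the record does not say whether a fall means rescue or toxicity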
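Fission yeast strain RE007, carrying one chromosomally integrated HIV-1 vpr copy, was seeded at OD 0.01 in PMG+AL medium with 23 nL pinned compound. After 24 h at 30 °C and 99% humidity, viability was read by BacTiter-Glo luminescence.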
MARV entry inh: inhibitors of Marburg virus binding or cell entry; Marburg virus pseudotyped entry inhibition, cell reporter; control for the full effect not named in the record; about a third of the inactives were read at about 46 µM; Potency, µM (top dose mostly 37.8 µM), for inactives: at the top dose activity change, negative = inhibition, most hits filed as inhibitors; 300,000 tested, 1.8% active; AID 540276; active = well fitted inhibition curve with a large enough effect; inconclusive = small, poorly fitted or top-dose-only effect, or effect the other way; inactive = flat fitted curve, though single readings scatter; tested in HEK293 cells; about a fifth of its hits are not listed in these tables; note: % is set by controls: 0 for no effect and ±100 for the full control effect; luciferase read-out
Cruzain Triton: inhibitors of Trypanosoma cruzi cruzain with detergent | P25779 | 200,000 tested, 0.43% active | purified cruzain, Z-FR-AMC fluorescence, 0.01% Triton | Potency, µM, for inactives: max response, negative = inhibition, most hits filed as inhibitors;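 note: plate controls were neutral wells for no effect and buffer without enzyme for full effect; nearly all actives have a fitted effect of over 40% in size; top concentration of the series not given in the record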
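15 min RT preincubation of 1.5 nM cruzain with compound, then 2 uM Z-FR-AMC added; kinetic AMC fluorescence, 60 s delta. Triton X-100 0.01%, pH 5.5.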
SARS PLP yeast: SARS-CoV PLP inhibition in yeast | 330,000 tested, 0.19% active | Potency, µM (titrated, usually from 32.9 µM), inactives show top-dose activity, positive = growth rescue | S. cerevisiae expressing SARS-CoV PLpro, growth rescue; control for the full effect not named in the record; active means well fitted rising curve with a large enough effect; inconclusive means small, poorly fitted or top-dose-only effect; inactive means no such curve, though single readings can be large or run the other way; note: 0% is about no effect; nearly all actives have a fitted effect of over 55% in size; growth read by luminescence after 48 h
Lassa entry inh: Lassa virus entry inhibition | Potency, µM (top dose mostly 37.9 µM), inactives show at the highest dose activity change, negative = inhibition, most hits filed as inhibitors | 300,000 tested, 1.2% active | Lassa virus pseudotype entry inhibition, cell reporter; control for the full effect not named in the record; active means well fitted inhibition curve with a large enough effect; inconclusive means small, poorly fitted or top-dose-only effect, or effect the other way; inactive means flat fitted curve, though single readings scatter; tested in HEK293 cells; note: % is set by controls: 0 for no effect and ±100 for the full control effect; nearly all actives have a fitted effect of over 50% in size; luciferase read-out
* marks the source's active call; other numbers are inactive results; u = inconclusive; x = no result given; [ ] = dose if it differs, or a comment. Unless noted, calls come from the whole dose curve; as a rule, active = well fitted curve in the direction sought with a large enough effect; inconclusive = small, poorly fitted or top-dose-only effect, or another doubt; inactive = no such curve, though single readings can be large; an effect the other way counts as inactive or inconclusive. Potency is the fitted concentration of half-maximal effect.

Order of results – 2A StopGo	Cruzain inh noDet	NS1 inh	RE007 growth inh	MARV entry inh	Cruzain Triton	SARS PLP yeast	Lassa entry inh
> COc1cccc(/C=N/Nc2nc3ccccc3n3cnnc23)c1O
 : 4.6%	-0.6%	18.7%	6.1%	8.91µM*	-8.4%	14.2%	u
> Cc1ccc(C)c(N2CCN(C(=O)c3cc(S(=O)(=O)N4CCOCC4)cn3C)CC2)c1
 : -8.8%	x	2.1%	2.7%	x	x	7.8%	x
> COc1ccc(C(=O)NCC(=O)N/N=C/c2ccc(C)o2)cc1OC
 : -14.0%	x	3.3%	-2.5%	x	x	1.6%	x
> CCOc1cc(C(=O)N2CCc3cc(OC)c(OC)cc3C2)ccc1OC(F)F
 : x	u	-15.0%	x	-1.9%	-2.6%	5.4%	x
> CC(=O)c1ccc(N2CCN(S(=O)(=O)c3cccc4nonc34)CC2)cc1
 : -16.1%	x	0.4%	-2.2%	x	x	0.4%	x
> COc1ccc(-c2nc(Cn3c(=O)cc(C)c4c(C)nn(-c5ccccc5)c43)c(C)o2)cc1OC
 : -3.8%	-10.8%	x	x	x	4.1%	x	-4.8%[46.1 µM]
> O=C(CSc1ncccc1C(=O)O)c1ccccc1
 : x	-5.5%	-0.1%	-7.5%	20.3%	4.2%	-0.3%	2.5%
> CC(C)OC(=O)c1ccc(NC(=O)c2ccccc2)cc1
 : -14.9%	-7.1%	-44.8%	7.7%	u	-6.3%	-22.6%	u
> FC(F)(F)c1nc2ccccc2[nH]1
 : -12.3%	x	1.0%	-1.9%	x	x	-0.1%	x
> COC(=O)c1cn(NC(=O)c2ccc([N+](=O)[O-])cc2Cl)c(=O)c2ccccc12
 : -3.2%	x	x	-6.0%	-26.7%[46.1 µM]	x	3.8%	7.0%
> COc1cccc(/C=C2\SC(=O)N(CCC(=O)NNC(=O)c3cccc(Cl)c3)C2=O)c1
 : 12.5%	u	-1.8%	7.2%	-18.5%	-1.9%	6.5%	1.58µM*
> Cc1ccc(C)c(NC(=O)Nc2cc3c(cc2N2CCCCC2)n(C)c(=O)n3C)c1
 : -16.5%	25.0%	x	x	u	-9.2%	x	u
> O=C(N/N=C/c1ccc(OC(=O)c2ccc([N+](=O)[O-])cc2)cc1)c1cccnc1
 : -16.9%	x	4.5%	2.2%	-6.6%	x	0.7%	-5.2%
> COc1c(C)cccc1C(=O)NCc1ccc2c(c1)OCO2
 : 14.0%	x	-6.9%	-7.0%	-0.6%[46.1 µM]	x	1.8%	-3.1%[46.1 µM]
> Cc1ccc(N2CC(C(=O)Nc3ccccc3C(=O)N3CCOCC3)CC2=O)cc1 (centres undefined)
 : 2.2%	x	1.8%	-8.2%	x	x	1.3%	x
> CCCCn1c(CNC(=O)C23CC4CC(CC(C4)C2)C3)nnc1SCC(=O)Nc1ccccc1
 : -17.1%	u	x	x	u	-3.9%	x	-21.6%[46.1 µM]
> Clc1ccccc1OCc1nnc(-c2ccccc2)o1
 : 94.0%[activator]	x	-6.6%	-13.5%	9.2%[46.1 µM]	x	-0.7%	3.1%
> C(#CCN1CCOCC1)COCCOC(c1ccccc1)c1ccccc1
 : -1.6%	23.9%	-5.8%	9.6%	u	-4.1%	2.9%	-23.6%
> COc1ccccc1Cn1c(/C=C/c2ccccc2)nc2ccccc21
 : -18.2%	u	-25.9%	-16.7%	u	-13.1%	x	u
> Cn1nnnc1SCCCNCc1ccc(-c2ccc(F)c(Cl)c2)o1
 : 8.1%	-15.5%	x	x	u	-3.0%	x	-17.8%[46.1 µM]
> Nc1c(C=C2C=CC(=O)C=C2)c(=O)nc2sc(CC(=O)N3CCCC3)nn12
 : -0.4%	x	17.8%	4.1%	17.8%[46.1 µM]	x	x	u
> Cc1ccc(OCc2nnc(SCC(=O)CC(=O)Nc3ccccc3)o2)cc1
 : -5.0%	1.7%	3.8%	12.9%	26.9%	-6.8%	6.5%	4.0%
> C=CCNC(=S)N1CCN(c2ccc([N+](=O)[O-])cc2)CC1
 : u	1.7%	-1.7%	u	-1.2%	-11.8%	-4.6%	-20.1%
> Cc1c(/C=N/n2cnnc2)c2ccccc2n1C
 : 22.5%	-7.1%	-7.7%	-1.1%	7.5%	2.4%	4.1%	7.4%
> O=S(=O)(NCC1CC1)c1ccc(F)c(Cl)c1
 : 49.3%[activator]	x	-4.4%	8.3%	5.4%[46.1 µM]	x	-1.5%	-1.3%[46.1 µM]
> CCCCCCCCNC1=CC(=O)CC(C)(C)C1
 : 7.4%	x	-9.9%	-3.2%	-2.6%[46.1 µM]	x	-0.6%	1.8%
> O=C(CC1CCCC1)NCCS(=O)(=O)N1CCN(c2ccc(F)cc2)CC1
 : -23.2%	x	x	-22.9%	u	x	x	-10.4%
> COc1ccc(C(CNC(=O)COc2ccccc2OC)N(C)C)cc1OC (centres undefined)
 : 10.9%	-7.9%	-0.6%	0.9%	10.6%	2.6%	-1.6%	17.5%
> CN1C(=O)c2cccc(NCCCCCCN3C(=O)c4ccccc4C3=O)c2C1=O
 : 12.6µM*	14.7%	1.2%	-2.5%	15.1%	-2.7%	-4.9%	-1.8%
> COC(=O)c1nnn(CC(=O)Nc2ccc(Br)c(C)c2)c1N
 : -22.6%	-2.4%	x	x	14.2%[46.1 µM]	-0.1%	x	23.5%[46.1 µM]

A draw from above in order of formula weight, rising:
Order of results – 2A StopGo	Cruzain inh noDet	NS1 inh	RE007 growth inh	MARV entry inh	Cruzain Triton	SARS PLP yeast	Lassa entry inh
> O=S(=O)(NCC1CC1)c1ccc(F)c(Cl)c1
 : 49.3%[activator]	x	-4.4%	8.3%	5.4%[46.1 µM]	x	-1.5%	-1.3%[46.1 µM]
> CC(C)OC(=O)c1ccc(NC(=O)c2ccccc2)cc1
 : -14.9%	-7.1%	-44.8%	7.7%	u	-6.3%	-22.6%	u
> O=C(N/N=C/c1ccc(OC(=O)c2ccc([N+](=O)[O-])cc2)cc1)c1cccnc1
 : -16.9%	x	4.5%	2.2%	-6.6%	x	0.7%	-5.2%
> CN1C(=O)c2cccc(NCCCCCCN3C(=O)c4ccccc4C3=O)c2C1=O
 : 12.6µM*	14.7%	1.2%	-2.5%	15.1%	-2.7%	-4.9%	-1.8%

Next section.
Order of results – 2A StopGo	Cruzain inh noDet	NS1 inh	RE007 growth inh	MARV entry inh	Cruzain Triton	SARS PLP yeast	Lassa entry inh
> CCN(CC)S(=O)(=O)c1ccc2[nH]c(=O)cc(C(=O)Nc3ccc(C)c(S(=O)(=O)N(CC)CC)c3)c2c1
 : -29.2%	u	15.0%	-5.6%	-11.6%	-11.0%	-4.6%	u
> O=C(O)c1ccc(-c2ccco2)n1Cc1ccccc1
 : -5.6%	-0.1%	-147.8%	6.3%	13.8%	-5.2%	-4.4%	0.8%
> Cc1cccc(NC(=O)c2ccccc2OCC(=O)c2ccc(F)cc2)c1
 : -11.4%	-7.7%	5.6%	-8.7%	-22.2%	-9.2%	2.1%	12.5%
> O=C1Nc2cc(Cl)c(Cl)cc2N(O)N1c1ccc(Cl)cc1
 : x	-14.9%	-2.4%	13.1%	0.1%	1.2%	15.7%	-1.9%
> CCOc1ccc(N2C(=O)C3ON(c4ccccc4)C(c4cccs4)C3C2=O)cc1 (centres undefined)
 : 1.0%	x	1.8%	-9.0%	-20.5%[46.1 µM]	x	-0.5%	5.4%
> O=S(=O)(NCCC1CC1(Cl)Cl)c1ccc(Cl)cc1 (centres undefined)
 : 98.2%[activator]	x	-10.1%	-7.6%	u	x	-0.6%	34.5%
> COc1ccc(N(CC(=O)Nc2nc3ccc(C)cc3s2)S(=O)(=O)c2c(C)nn(C)c2C)cc1
 : 0.0%	u	-56.4%	-3.4%	x	-8.2%	3.1%	x
> O=C(Nc1ccc(N2CCOCC2)cc1)C1CCN(C(=O)OCc2ccccc2)CC1
 : -18.5%	x	-0.3%	16.3%	-19.9%	x	-0.8%	0.2%
> COc1ccccc1NC(=O)Nc1nc(CC(=O)Nc2cc(F)ccc2F)cs1
 : -17.6%	x	x	-12.0%	3.9%	x	1.2%	-18.6%
> CC1=C(C(=O)Nc2cccnc2)C(c2ccccc2)n2nc(SCc3ccccc3)nc2N1 (centres undefined)
 : -0.2%	9.2%	x	x	u	0.7%	x	16.6%[46.1 µM]
> CCCCn1c(N)c(N(CCOC)C(=O)c2cc(=O)[nH]c3ccccc23)c(=O)[nH]c1=O
 : 0.2%	x	x	1.6%	-2.7%	x	-2.0%	-4.7%
> COc1ccc(CCn2c3c(c(=O)[nH]c2=O)C(NC(=O)c2ccccc2F)(C(F)(F)F)C(=O)N3)cc1OC (centres undefined)
 : -1.4%	-5.8%	x	x	3.4%[46.1 µM]	-1.7%	x	-1.1%[46.1 µM]
> COc1cccc2c3c(c(=O)[nH]c12)CCC(C)(C)O3
 : 19.9%	-19.0%	-14.3%	15.2%	20.1%	3.1%	-8.1%	21.9%
> O=C(COC(=O)C(Cc1c[nH]c2ccccc12)NC(=O)c1ccc(Br)cc1)c1ccc(Cl)cc1 (centres undefined)
 : 8.2%	u	x	x	x	-0.8%	x	10.9%[46.1 µM]
> COc1ccc(CCNC(=O)C2=COCCO2)cc1
 : 79.8%[activator]	0.6%	-1.1%	-9.2%	19.0%	-0.7%	-7.9%	-0.6%
> COc1ccc(CN2C(=O)CSC2c2ccccn2)cc1 (centres undefined)
 : -8.2%	x	2.4%	-18.0%	-2.3%	x	0.3%	4.6%
> Cc1ccc2c(c1)c1c3n2CCN(C=O)C3CCC1 (centres undefined)
 : -15.1%	x	-9.2%	-15.9%	x	x	-3.3%	x
> COc1ccc([N+](=O)[O-])cc1N/C(=N/S(=O)(=O)c1ccccc1)c1ccccc1
 : 34.8%[activator]	x	x	12.1%	14.4%[46.1 µM]	x	-0.6%	-14.3%
> Cc1ccccc1N1C(=O)C2C3CC(=O)C(c4ccccc43)C2C1=O (centres undefined)
 : 1.5%	5.7%	-3.9%	10.0%	0.6%	1.3%	0.5%	16.3%
> Cc1noc(-c2ccc(-c3noc(-c4cccc(F)c4)n3)cc2)n1
 : -11.5%	26.6%	x	x	x	1.1%	x	-5.1%[46.1 µM]

Compound activity from PubChem BioAssay.
